# eIF4H inh = inhibitors of RNA binding by human eIF4H | Q15056 | eIF4H fluorescence polarization binding assay | inhibition, % at 35 µM | 290,000 compounds, 0.94% hits;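 active = 50% or more with normal probe brightness, or confirmed in later tests; about a fifth of its hits are not listed in these tables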;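 note: calls also rest on retests at 20 µM and on dose response follow-up; 0% = protein and probe with vehicle and 100% = probe without protein; strong numbers were not always called active; many hits fall short of the cut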
# Rce1 inh = inhibitors of yeast Ras-converting enzyme | calls only | AID 2563 | Q03530 | 290,000 compounds, 0.27% hits | yeast membranes, quenched prenylated peptide cleavage fluorescence;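 active = fall in fluorescence gain of 50% or more versus controls, with final raw signal at or below 3038400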;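 note: plate controls were neutral control wells for no effect and wells lacking membranes for full effect; tested at 10 µM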
# MT1-MMP act inh = MT1-MMP (human) activation inhibition. HT1080 RFP-PRO-GFP cells, GFP/RFP ratio fluorescence, overnight; percent of plate control window, DMSO zero. GFP/RFP ratio change, % at 20 µM. 360,000 compounds, 0.061% hits. AID 651647;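 active = GFP/RFP ratio change of at least 30% with cell ATP level not reduced by more than half and red fluorescence within 50% of control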; note: strong numbers were not always called active
#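 Material – HT1080 RFP-PRO-GFP cells · Control set – DMSO wells and RFP-L50D-GFP cells · Incubation – overnight cell settling, then overnight compound exposure, 37 °C, 5% CO2 · Compound dosing – single-point 20 µM compound, 1% DMSO · Read-out – GFP/RFP fluorescence ratio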
# PABP FP inh = blocks human PABP binding to poly(A) RNA | P11940 | fluorescence polarization | inhibition, % at 35 µM | 290,000 compounds, 1% hits | AID 2014;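 active = 50% or more with normal probe brightness, or confirmed in later tests; about a fifth of its hits are not listed in these tables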;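 note: calls also rest on retests at 20 µM and on dose response follow-up; controls were probe without protein and protein plus probe with vehicle; some compounds called inactive have numbers as strong as hits; many hits fall short of the cut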
# Target sequence (P11940 whole entry, looked up): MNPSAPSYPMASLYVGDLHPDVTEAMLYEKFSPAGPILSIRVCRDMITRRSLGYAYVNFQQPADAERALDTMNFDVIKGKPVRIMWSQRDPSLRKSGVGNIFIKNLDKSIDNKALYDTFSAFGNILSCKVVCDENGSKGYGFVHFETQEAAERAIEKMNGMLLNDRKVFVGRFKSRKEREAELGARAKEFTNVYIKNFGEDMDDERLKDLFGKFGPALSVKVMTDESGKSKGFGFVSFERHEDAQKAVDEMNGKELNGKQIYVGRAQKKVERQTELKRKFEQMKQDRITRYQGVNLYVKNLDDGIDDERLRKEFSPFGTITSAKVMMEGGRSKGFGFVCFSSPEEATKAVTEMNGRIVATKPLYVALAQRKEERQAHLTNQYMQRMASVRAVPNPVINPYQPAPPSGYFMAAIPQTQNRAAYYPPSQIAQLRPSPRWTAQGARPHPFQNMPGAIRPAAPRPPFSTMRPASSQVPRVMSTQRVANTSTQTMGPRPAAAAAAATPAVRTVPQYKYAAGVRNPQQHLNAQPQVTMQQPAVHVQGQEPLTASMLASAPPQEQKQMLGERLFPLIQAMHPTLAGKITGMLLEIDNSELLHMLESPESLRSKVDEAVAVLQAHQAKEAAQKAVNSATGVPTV
# UUG fidelity = modulators of start codon recognition fidelity in yeast; S. cerevisiae UUG-firefly luciferase reporter, luminescence/redox ratio; activity score, % at 18.7 µM; 350,000 compounds, 0.13% hits;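 active = replicate mean at a twofold rise or more, about +100% in these data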;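 note: firefly luciferase made from a UUG start codon reports start codon fidelity; reporter light over untreated wells divided by growth signal over untreated wells; some hits fall short of that in this replicate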
# Env fusion inh = HIV envelope-mediated fusion inhibition | HeLa-JRFL Env/CEM21 cell fusion, luciferase | inhibition, % at 12.3 µM | 360,000 compounds, 1.1% hits;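 active = mean replicate inhibition score of at least 50 and every replicate individually at or above 50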;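 note: 0% = plate neutral controls and 100% = maraviroc near 300 nM; one replicate is shown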
# CSC inhib = blocks cancer stem cells; inhibition, % at 7.5 µM; cancer stem cell-like cells viability, luminescence; 300,000 compounds, 1.1% hits;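 active = mean at 75% or more and at least half the replicates too; tested in HMLE shEcad cells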;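 note: 0% = median of negative and 100% = median of positive control wells; the first replicate is given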
# MT1-MMP act inh RFP = second read-out of MT1-MMP act inh, no call of its own (marks repeat the call); RFP signal change, %; measured here: RFP expression control read;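 0 = vehicle wells; hits needed this value within 50% of zero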
# An asterisk follows results filed as active; i = inactive; . = not tested or not shown; & = joins results of further samples.
(1) CCN(CC)CCCNC(=O)C1CCC(CNS(=O)(=O)c2c(C)cc(C)cc2C)CC1 (configuration not stated)
(2) CC1CCCN(C(=O)CCS(=O)(=O)c2cc3c(cc2Cl)NC(=O)CO3)C1 (configuration not stated)
(3) Cc1csc(-c2cnn(-c3ccccc3)c2NC(=O)c2ccc(C(F)(F)F)cc2)n1
(4) Cc1ccc(Nc2nc3ccccc3nc2-n2nc(C)cc2C)cc1
(5) COc1ccc(NS(=O)(=O)c2cc(NC(=O)c3cc(F)c(F)c(F)c3F)ccc2N2CCCC2)cc1
(6) Cc1ccc(/C=N/NC(=O)c2cccs2)o1
(7) CCOc1cc(/C=N/Nc2nc(N3CCCCC3)nc(N3CCCCC3)n2)ccc1OC(=O)c1ccco1
(8) CCN1CCN(Cc2c(C(=O)N/N=C(\C)c3ccc(Cl)c(Cl)c3)nnn2-c2nonc2N)CC1
Assay by compound,1,2,3,4,5,6,7,8
eIF4H inh,9,-6,-6,0,-8,-7,7,-6
Rce1 inh,i,i,i,i,i,i,i,i
MT1-MMP act inh,0,2,2,0,4,9,1,.
MT1-MMP act inh RFP,-3,-2,-8,-2,-2,4,-1,.
PABP FP inh,13,-8,-2,-15,6,0,1,1
UUG fidelity,-8,-7,.,-12,.,.,-5,.
Env fusion inh,4,6,.,6,16,-5,4,.
CSC inhib,.,-1,12,41,43,1,-29,1

(9) CN(C(=O)CSC(=O)c1ccccc1)c1ccccc1
(10) NCCNC(=O)c1ncsc1-c1cccc(F)c1
(11) O=C(NCc1ccco1)c1cc(-c2ccccn2)nc2ccccc12
(12) Nc1ccc(C(=O)N2N=C(c3ccccc3)CC2(O)C(F)(F)F)cc1 (configuration not stated)
(13) COc1ccc(N(C(=O)c2ccco2)S(=O)(=O)c2cccs2)cc1
(14) O=C(CNC(=O)c1ccc(-c2ccccc2)cc1)Nc1ccc(S(=O)(=O)Nc2ncccn2)cc1
(15) C/C(CC(=O)Nc1ccc(N(C)C)cc1)=N\NC(=O)c1ccccc1O
(16) O=C(NCCN1CCN(Cc2ccccc2)CC1)c1ccc(CS(=O)(=O)c2ccc(Br)cc2)o1
Assay by compound,9,10,11,12,13,14,15,16
eIF4H inh,-11,.,-13,1,-1,-6,8,.
Rce1 inh,.,i,i,i,i,.,i,i
MT1-MMP act inh,-3,-1,-1,0,2,-2,2,3
MT1-MMP act inh RFP,-3,-1,0,1,3,0,-4,2
PABP FP inh,-6,.,-5,4,12,8,8,.
UUG fidelity,-12,-9,-2,-2,-5,-12,-4,6
Env fusion inh,-1,2,-57,-37,.,11,3,5
CSC inhib,2,0,0,-1,-10,-10,13,6

# Profiles from above.
# `O=C(NCCN1CCN(Cc2ccccc2)CC1)c1ccc(CS(=O)(=O)c2ccc(Br)cc2)o1` is entered as eIF4H inh: .; Rce1 inh: i; MT1-MMP act inh: 3; MT1-MMP act inh RFP: 2; PABP FP inh: .; UUG fidelity: 6; Env fusion inh: 5; CSC inhib: 6
# `NCCNC(=O)c1ncsc1-c1cccc(F)c1` is entered as eIF4H inh: .; Rce1 inh: i; MT1-MMP act inh: -1; MT1-MMP act inh RFP: -1; PABP FP inh: .; UUG fidelity: -9; Env fusion inh: 2; CSC inhib: 0

# Continuation:
(17) CN(C)C(=O)c1nnc(Cc2ccc(Cl)cc2)o1
(18) CSc1ccccc1NC(=O)COc1ccccc1C
(19) Cc1noc(NS(=O)(=O)c2ccc(N3C(=O)c4ccccc4C3=O)cc2)c1C
(20) Cc1nc2nc(-c3ccc(Cl)cc3)nn2c(C)c1Cl
(21) COc1ccc(CNC(=O)C(=O)NCC2OCCN2S(=O)(=O)c2ccc(OC)cc2)cc1 (configuration not stated)
(22) COc1ccc(C)cc1S(=O)(=O)N1CCCC(C(=O)N2CCN(c3ccccc3)CC2)C1 (configuration not stated)
(23) CC(=O)Nc1ccc(NC(=O)Nc2ccc(C)c(C)c2)cc1
(24) COc1ccccc1CN1CC(C(=O)NC2CCOCC2)CCC1=O (configuration not stated)
Assay by compound,17,18,19,20,21,22,23,24
eIF4H inh,-4,1,1,1,9,5,-8,-1
Rce1 inh,i,i,i,i,i,i,.,i
MT1-MMP act inh,1,-3,4,.,1,-1,1,0
MT1-MMP act inh RFP,2,-4,5,.,-2,-18,1,4
PABP FP inh,0,8,5,-1,-4,-9,2,6
UUG fidelity,-14,-5,5,.,-20,1,.,-18
Env fusion inh,0,7,-10,.,-17,26,4,-10
CSC inhib,-9,-9,0,-1,2,7,5,-5

(25) Cc1ccc(OCC(=O)N(Cc2ccccc2)C(C)(C)C)c([N+](=O)[O-])n1
(26) O=C(Nc1ccc(NC(=O)c2cc3ccccc3o2)cc1)c1ccc2c(c1)OCCO2
(27) COc1cccc(C(=O)NCCS(=O)(=O)NCc2ccco2)c1
(28) CC(=O)Nc1ccc(S(=O)(=O)N(C)c2ccc(OCC(=O)Nc3ccccc3C(C)=O)cc2)cc1
(29) CCC(C)NC(=S)N(Cc1cc2cc(C)ccc2n2nnnc12)CC(C)(C)NC(C)C (configuration not stated)
(30) Cc1ccc(S(=O)(=O)Nc2ccc3c(c2)C(=O)N([C@H](C)CO)C[C@H](C)[C@H](CN(C)C(=O)Nc2cccc4ccccc24)OCCCC[C@@H](C)O3)cc1
(31) CC(C)(C)N(Cc1cc2ccccc2[nH]c1=O)C(=O)c1cccnc1
(32) CC1Oc2ccccc2C=C1/C=N/NC(=O)c1ccccc1 (configuration not stated)
Assay by compound,25,26,27,28,29,30,31,32
eIF4H inh,2,27,.,.,-8,.,-10,3
Rce1 inh,i,i,i,.,i,.,i,i
MT1-MMP act inh,1,6,2,1,1,-6,-4,-5
MT1-MMP act inh RFP,-1,-6,5,-5,2,-6,4,-10
PABP FP inh,16,11,.,.,-14,.,-6,-8
UUG fidelity,-2,.,.,-14,2,-5&-7,-12,.
Env fusion inh,7,27,-3,8,10,-123,-17,-101
CSC inhib,4,2,-9,.,5,.,-4,-2

(33) CCOC(=O)C1CCCN(C(=O)CN2C(=O)COc3ccc(C(C)(C)C)cc32)C1 (configuration not stated)
(34) CCN(CC)CCNc1ncnc2c1sc1nc(N3CCCC3)c3c(c12)CC(C)(C)OC3
(35) CCOC(=O)c1c(C)n(C)c2ccc(OCC(O)CN3C(=O)c4ccccc4S3(=O)=O)cc12 (configuration not stated)
(36) Cc1ccc(NC(=S)Nc2ccc3nc(-c4ccccn4)c(-c4ccccn4)nc3c2)cc1C
(37) CCN1CCN(CCC(=O)Nc2ccc3c(c2)OCO3)CC1
(38) Cc1cc(Cn2nc(-c3ccccc3)cc2C(=O)NCc2cccc(Br)c2)on1
(39) COc1cc(/C=C(\C#N)C(N)=O)ccc1OS(=O)(=O)c1ccc(C)cc1
(40) CCN(C(=O)COC(=O)c1ccccc1NC(=O)c1ccco1)C1CCS(=O)(=O)C1 (configuration not stated)
Assay by compound,33,34,35,36,37,38,39,40
eIF4H inh,-3,-5,2,48,-5,.,-6,-2
Rce1 inh,i,i,i,.,i,i,i,i
MT1-MMP act inh,-1,-3,8,-32,.,3,3,-4
MT1-MMP act inh RFP,-2,-8,-7,10,.,0,2,2
PABP FP inh,4,-9,-8,2,-5,.,1,3
UUG fidelity,-9,.,-1,.,-10,-15,-9,-1
Env fusion inh,.,3,-60,.,.,-14,.,-13
CSC inhib,-5,20,0,6,-5,38,-10,-9

(41) Cc1ccccc1C1CC(c2ccc(F)cc2)Nc2nc(N)nn21 (configuration not stated)
(42) COc1ccc(/C=N/N2CCOCC2)cc1O
(43) CCCc1cc(=O)oc2cc(OCC(=O)NCCc3c[nH]c4ccccc34)ccc12
(44) Cc1cccc(C(OC(=O)c2ccco2)C(=O)NCc2ccccc2)n1 (configuration not stated)
(45) N#Cc1ccccc1OCC(=O)N1CCc2ccccc2C1
(46) CCN(CC(=O)NCc1cccs1)C(=O)c1ccccc1Cl
(47) COC(=O)c1ccc(COC(=O)C2CCN(S(=O)(=O)c3c(C)cc(C)cc3C)CC2)o1
(48) CCCCOc1ccc(/C(N)=N/O)cc1
Assay by compound,41,42,43,44,45,46,47,48
eIF4H inh,3,1,2,-2,-1,-7,.,-1
Rce1 inh,i,i,i,i,i,i,.,i
MT1-MMP act inh,-1,1,-2,6,1,2,-1,0
MT1-MMP act inh RFP,1,4,-1,0,-2,2,9,-3
PABP FP inh,-12,5,-5,-5,-6,-14,.,-8
UUG fidelity,-8,.,-19,-7,.,.,-11,-17
Env fusion inh,-14,-6,.,-3,21,5,-2,.
CSC inhib,.,-5,21,-11,1,-3,.,6

(49) Cc1nnc(SC(C)C(=O)Nc2ccc(N3CCOCC3)cc2)n1Cc1ccccc1 (configuration not stated)
(50) CCN1CCN(c2nnc(-c3ccc(F)cc3)c3ccccc23)CC1
(51) CCOC(=O)C1CCN(C(=O)COC(=O)C2CCN(S(=O)(=O)c3ccc(C)c(C)c3)CC2)CC1
(52) c1n[nH]c(SCCCCSc2ncn[nH]2)n1
(53) O=c1cc(-c2ccc3c(c2)OCCO3)oc2ccc(Cl)cc12
(54) Cc1ccc2c(CN(Cc3ccccc3)Cc3ccccc3)cc(=O)oc2c1
(55) O=C(Oc1c(Cl)cc(Cl)c2cccnc12)N1CCCCC1
(56) Cc1ccc2sc(N(CCCN(C)C)C(=O)c3nc4ccccc4s3)nc2c1C
Assay by compound,49,50,51,52,53,54,55,56
eIF4H inh,.,11,.,-2,-10,.,-14,2
Rce1 inh,.,i,i,i,i,.,i,i
MT1-MMP act inh,2,-4,1,1,6,-3,0,-3
MT1-MMP act inh RFP,2,-4,1,7,1,-10,0,0
PABP FP inh,.,1,.,4,24,.,2,4
UUG fidelity,-13,.,-1,-13,1,-9,3,-17
Env fusion inh,-2,-1,20,.,-93,-1,7,1
CSC inhib,.,-5,-3,-20,9,.,-9,-5

(57) COC(=O)c1ccc(NC(=O)N2CCCC(C(=O)c3ccccc3OC)C2)cc1 (configuration not stated)
(58) CCCn1c(SCC(=O)NCc2ccccc2)nnc1-c1ccncc1
(59) NC(N)=NCCC[C@H](NC(=O)OCc1ccccc1)C(=O)O
(60) CC(C)CC(C(=O)O)C(C)CC(=O)Nc1ccn(-c2ccccc2)n1 (configuration not stated)
(61) CCOC(=O)C1=C(O)CSC1=Nc1ccc(Cl)cc1
(62) COc1ccc([N+](=O)[O-])cc1NC(=S)Nc1ccccc1
(63) COc1cccc(NC(=O)CN2C(=O)NC(C)(CCC(C)C)C2=O)c1 (configuration not stated)
(64) CC(=O)NCC1(c2ccccc2)CCN(CCCC(=O)c2ccc(F)cc2)CC1
Assay by compound,57,58,59,60,61,62,63,64
eIF4H inh,4,4,-4,-5,5,-4,6,.
Rce1 inh,i,i,i,i,i,i,i,.
MT1-MMP act inh,1,-6,0,1,.,-4,1,4
MT1-MMP act inh RFP,3,1,2,2,.,3,6,3
PABP FP inh,-6,-3,-6,4,9,-1,20,.
UUG fidelity,.,-15,4,-7,-10,-13,11,2
Env fusion inh,-11,-3,-10,.,-71,.,-28,-24
CSC inhib,28,1,9,-2,-8,-13,0,.

(65) Cc1ccc(S(=O)(=O)NC23CC4CC(CC(C4)C2)C3)cc1
(66) CN(Cc1ccccc1)C(=O)c1csc([C@@H]2C[C@H](O)[C@@H](CO)O2)n1
(67) COC1=C(Nc2ccc(O)cc2)C(=O)c2ccccc2C1=O
(68) CCc1nn(C)c(-c2n[nH]c(=S)n2N)c1Cl
(69) COc1cc(F)ccc1-c1csc(C(O)c2ccc(F)c(F)c2)n1 (configuration not stated)
(70) O=C(CSc1nnc(CNC(=O)c2cccs2)o1)NCc1ccc(F)cc1
Assay by compound,65,66,67,68,69,70
eIF4H inh,.,.,15,-6,.,-16
Rce1 inh,.,.,i,i,.,i
MT1-MMP act inh,6,0,8,5,-3,-1
MT1-MMP act inh RFP,-9,3,-4,1,1,3
PABP FP inh,.,.,-2,-10,.,2
UUG fidelity,17,-23,.,-24,-8,-20
Env fusion inh,4,5,.,.,7,.
CSC inhib,.,.,21,-4,.,.

# Compound activity from PubChem BioAssay.

# Some of the compounds tested, so the mix of outcomes need not match the whole.
